Screening data: PubChem, National Center for Advancing Translational Sciences (NCATS)
MARV entry inh: qHTS for inhibitors of binding or entry into cells for Marburg Virus; Marburg virus pseudotyped entry inhibition, cell reporter; control for the full effect not named in the record; about a third of the inactives were read at about 46 µM; Potency, µM (highest dose often 37.8 µM), inactives show at the top dose activity change, negative = inhibition, hits mostly inhibitors; 1.8% of 300,000 active; AID 540276, 2011; active = well fitted inhibition curve with a large enough effect; inconclusive = small, poorly fitted or top-dose-only effect, or effect the other way; inactive = flat fitted curve, though single readings scatter; tested in HEK293 cells; about a fifth of its hits are not listed in these tables; also: % is scaled to controls: 0 for no effect and ±100 for the full control effect; luciferase read-out
SARS PLP yeast: qHTS of Yeast-based Assay for SARS-CoV PLP; 0.19% of 330,000 active; S. cerevisiae expressing SARS-CoV PLpro, growth rescue; control for the full effect not named in the record; Potency, µM (highest dose often 32.9 µM), without a hit: top-dose activity, positive = growth rescue; AID 485353, 2010; also: 0% is about no effect; nearly all actives have a fitted effect of over 55% in size; growth read by luminescence after 48 h
Cruzain noTriton: qHTS Assay for Promiscuous and Specific Inhibitors of Cruzain (without detergent). purified cruzain, Z-FR-AMC fluorescence, no detergent. Potency, µM, for inactives: max response, negative = inhibition, most hits filed as inhibitors. 2.3% of 200,000 active. AID 1476, 2009; active = well fitted curve in the direction sought with a large enough effect; inconclusive = small, poorly fitted or top-dose-only effect, or another doubt; inactive = no such curve, though single readings can be large; an effect the other way counts as inactive or inconclusive;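 also: plate controls were enzyme without inhibitor for no effect and buffer without enzyme for full effect; nearly all actives have a fitted effect of over 40% in size; top concentration of the series not given in the record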
Target sequence (P25779 123-467 limits assumed): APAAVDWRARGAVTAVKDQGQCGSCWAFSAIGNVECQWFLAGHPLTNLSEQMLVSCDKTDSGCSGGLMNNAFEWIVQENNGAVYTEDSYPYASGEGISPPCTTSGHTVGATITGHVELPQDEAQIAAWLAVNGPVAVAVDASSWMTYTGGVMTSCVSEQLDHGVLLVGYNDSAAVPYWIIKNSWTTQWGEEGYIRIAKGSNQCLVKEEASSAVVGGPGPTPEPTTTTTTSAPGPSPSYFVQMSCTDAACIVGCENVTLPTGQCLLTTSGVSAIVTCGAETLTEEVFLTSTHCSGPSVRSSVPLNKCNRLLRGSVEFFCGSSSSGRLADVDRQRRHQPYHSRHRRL
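Purified cruzain at 1.5 nM, pre-incubated 15 min with compound at room temperature in 100 mM sodium acetate pH 5.5, 5 mM DTT, 0.00005% Triton X-100. Reaction started with 2 uM Z-FR-AMC; AMC fluorescence increase over 60 s gives rate.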
LASV entry inh: qHTS for Inhibitors of binding or entry into cells for Lassa Virus; Lassa virus pseudotype entry inhibition, cell reporter; control for the full effect not named in the record; Potency, µM (highest dose often 37.9 µM), inactives show at the top dose activity change, negative = inhibition, usual class: inhibitors; 1.2% of 300,000 active; AID 540256, 2011; active means well fitted inhibition curve with a large enough effect; inconclusive means small, poorly fitted or top-dose-only effect, or effect the other way; inactive means flat fitted curve, though single readings scatter; tested in HEK293 cells; also: % is scaled to controls: 0 for no effect and ±100 for the full control effect; nearly all actives have a fitted effect of over 50% in size; luciferase read-out
NS1 inh: qHTS Assay for Inhibitors of Influenza NS1 Protein Function | S. cerevisiae slowed by influenza A NS1, growth recovery by OD600 | Potency, µM (highest dose often 46.1 µM), without a hit: at the highest dose activity, positive = more growth | 0.4% of 270,000 active | AID 2326, 2010; also: actives are rising curves; nearly all actives have a fitted effect of over 50% in size
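Recovery from NS1-induced slow growth read by OD600 in budding yeast switched to galactose assay medium (pH 6.0, -URA) at 1:100 dilution. Compound 23 nl per well; the matching strain lacking NS1 serves as control.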
Cruzain inh Det: qHTS Assay for Promiscuous and Specific Inhibitors of Cruzain (with detergent); AID 1478, 2009; Cruzipain (Trypanosoma cruzi), P25779; 0.43% of 200,000 active; Potency, µM, inactives show max response, negative = inhibition, most hits filed as inhibitors; purified cruzain, Z-FR-AMC fluorescence, 0.01% Triton; active = well fitted curve in the direction sought with a large enough effect; inconclusive = small, poorly fitted or top-dose-only effect, or another doubt; inactive = no such curve, though single readings can be large; an effect the other way counts as inactive or inconclusive;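 also: plate controls were neutral wells for no effect and buffer without enzyme for full effect; nearly all actives have a fitted effect of over 40% in size; top concentration of the series not given in the record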
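Z-FR-AMC hydrolysis (2 uM substrate) by cruzain (1.5 nM) monitored kinetically at ex 360/em 450 nm after 15 min room-temperature compound exposure; 0.01% Triton X-100, pH 5.5, 5 mM DTT.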
StopGo reporter: High Throughput Screening for Foot and Mouth Disease Virus Antivirals; human cells with a luciferase reporter of 2A StopGo recoding; control for the full effect not named in the record; Potency, µM (series often up to 57.9 µM), for the others: top-dose signal change, negative = less light; 1.2% of 410,000 active; active = well fitted falling curve with a large enough effect; inconclusive = small, poorly fitted or top-dose-only effect; inactive = no such curve, though single readings can be large or run the other way; tested in HEK293T cells; also: % is scaled to controls: 0 for no effect and ±100 for the full control effect; nearly all actives have a fitted effect of over 45% in size; luciferase light after 4 h
RE007 growth inh: qHTS Assay for Inhibitors of the HIV-1 protein Vpr; S. pombe RE007 Vpr strain, BacTiter-Glo ATP luminescence, 24 h; control for the full effect not named in the record; Potency, µM (titrated, usually from 92.2 µM), without a hit: at the top dose activity change, negative = less growth; 0.21% of 360,000 active; active = well fitted falling curve with a large enough effect; inconclusive = small, poorly fitted or top-dose-only effect; inactive = no such curve, though single readings can be large or run the other way;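 also: % is scaled to controls: 0 for no effect and ±100 for the full control effect; nearly all actives have a fitted effect of over 50% in size; the assay follows cell death caused by Vpr and the record does not say whether a fall means rescue or toxicity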
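Fission yeast RE007 carrying one integrated HIV-1 vpr copy, seeded at OD 0.01 in PMG+AL medium with 23 nL pinned compound. Grown 24 h at 30 degrees; viability read by BacTiter-Glo luminescence after 5 min.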
* marks the source's active call; other numbers are inactive results; u = inconclusive; x = not tested or not shown; & = joins results of further samples; ! = not confirmed by another sample; [ ] = remark or other dose. Unless noted, calls follow the shape of the dose curve; as a rule, active means well fitted rising curve with a large enough effect; inconclusive means small, poorly fitted or top-dose-only effect; inactive means no such curve, though single readings can be large or run the other way. Potency is read from the fitted curve at half-maximal effect. The order is random; any-hit rate near 4.8%.

SMILES	MARV entry inh	SARS PLP yeast	Cruzain noTriton	LASV entry inh	NS1 inh	Cruzain inh Det	StopGo reporter	RE007 growth inh
O=C(c1cc2cc(F)ccc2[nH]1)N1CCN(C(=O)c2ccco2)CC1	x	1.9%	x	x	-3.0%	x	9.3%	-6.2%
COc1ccc(S(=O)(=O)N2CCN(c3ccccn3)CC2)c(OC)c1	x	-1.4%	x	x	-16.3%	x	5.4%	3.3%
CCOc1ncccc1C(=O)Nc1cccc(C(=O)Nc2cccc(S(=O)(=O)CCO)c2)c1	u	4.7%	u	-20.4%	-7.3%	-2.1%	u	-2.9%
C/C(=N\NS(=O)(=O)c1ccc(Br)cc1)c1ccncc1	-1.7%[46.1 µM]	4.6%	x	-11.5%[46.1 µM]	8.8%	x	16.8%	0.7%
COc1ccc(-c2[nH]nc3c2C(c2ccoc2)C(C#N)=C(N)O3)cc1 (stereo not given)	3.0%	20.3%	-0.6%	1.9%	17.9%	-4.4%	u	-3.6%
Cc1ccccc1C(=O)N=c1ccn(-c2nc3ccccc3nc2NS(=O)(=O)c2ccc(F)cc2)cc1	x	1.2%	x	x	6.9%	x	0.6%	2.0%
COc1cccc(N2CCN(C(=O)c3cc4cc5cc(C)ccc5nc4s3)CC2)c1	x	x	-1.2%	12.8%[46.1 µM]	x	-1.7%	-15.5%	x
COc1cccc(CC(=O)Nc2cc(S(=O)(=O)N3CCOCC3)ccc2OC)c1	-1.5%[46.1 µM]	-3.8%	x	14.4%	x	x	41.7%[activator]	-4.3%
Cc1ccc2nc(SCC(=O)NCc3ccco3)c(C#N)cc2c1	-22.0%[46.1 µM]	11.7%	25.1µM*	9.2%	1.1%	2.5%	27.6%	-0.5%
COCCNC(=O)c1ccccc1NC(=O)CSc1ccc(C)cc1	-27.2%[46.1 µM]	-2.0%	x	21.8%[46.1 µM]	-2.0%	x	35.1%[activator]	-1.2%
Cc1ccccc1CN1CCCN(Cc2ccc(Cl)cc2)S1(=O)=O	-5.0%[46.1 µM]	-5.0%	x	u	2.1%	x	-8.3%	6.5%
Cc1ccc(-c2nc3ncccc3o2)cc1NC(=O)COc1ccccc1	-6.3%	-5.0%	4.3%	7.2%	11.2%	5.7%	x	8.0%
COc1ccc(N2CCN(C(=O)CCCn3nnnc3CN3CCOCC3)C(C)C2)cc1 (stereo not given)	u	4.0%	x	-11.5%	-1.5%	x	-12.0%	-12.2%
CCn1c(C)cs/c1=N\C(=S)Nc1ccccc1C	u	-60.4%	-4.8%	7.7%	-20.1%	-4.9%	12.7%	-10.9%
Cc1ccc(S(=O)(=O)CCC(=O)OCC(=O)N2c3ccccc3CC2C)cc1 (stereo not given)	23.5%	0.7%	x	13.8%	x	x	-23.1%	-10.3%
OCCNc1c2ccccc2nc2ccccc12	u	-5.0%	x	-22.3%	-7.1%	x	-15.0%	-6.3%
Cc1cccc(N(CC(=O)NCC2CCCO2)C(=O)CNS(=O)(=O)c2ccc(Cl)cc2)c1 (stereo not given)	-12.1%[46.1 µM]	2.3%	x	u	-14.1%	x	1.6%	-3.3%
NC(=O)CNC(=O)[C@@H]1CC2(CC(c3cccc(Br)c3)=NO2)CN1C(=O)c1ccc(Br)cc1 (stereo not given in full)	5.2%	0.0%	u	x	4.8%	-10.2%	1.5%	23.7%
CSc1ccc(/C=C/c2cc(=O)c3ccccc3[nH]2)cc1	u	5.3%	u	3.1%	-12.0%	-22.1%	-28.1%	8.4%
CCn1c(SCC(=O)Nc2ccc(S(=O)(=O)Nc3onc(C)c3C)cc2)nnc1-c1ccccc1	10.8%	-14.0%	u	8.8%[14.3 µM]	-31.7%	2.8%	-7.4%	6.4%
CCOc1ccccc1Nc1nnc(-c2cc3cc(OC)ccc3oc2=O)s1	x	x	-0.9%	u	x	0.6%	-27.1%	x
CC1(C)C=C(c2ccc(C=O)s2)CC(C)(C)N1C=O	13.9%	-19.5%	-7.0%	-14.4%	-36.5%	-4.4%	-14.9%	31.0%
Cc1cccc(C(=O)NCCC(=O)Nc2ccc(C#N)cc2)c1	-2.5%[46.1 µM]	1.8%	x	-12.6%[46.1 µM]	5.0%	x	-7.0%	8.4%
N=C(N)SCCN	35.5µM*!	x	3.4%&-0.1%&4.7%	22.1%	-3.1%	2.7%&-1.5%&2.2%	-2.5%&-2.8%	-9.7%
COC(=O)c1sc2cccc(F)c2c1S(=O)(=O)N1CCN(c2ccc(F)cc2)CC1	x	x	-3.7%	-2.5%[46.1 µM]	x	-6.5%	-16.9%	x
SMILES	MARV entry inh	SARS PLP yeast	Cruzain noTriton	LASV entry inh	NS1 inh	Cruzain inh Det	StopGo reporter	RE007 growth inh
CCNc1ccc(Br)cc(C(=O)/C=C/c2ccccc2Cl)c1=O	16.4µM*	x	x	u	x	x	u	-7.3%
COC(=O)c1[nH]c2cccc(C)c2c1NC(=O)CN1CCN(c2ccccc2OC)CC1	16.7%	1.3%	u	-11.8%	-53.8%	3.4%	u	15.6%
CC(=O)Nc1ccc(S(=O)(=O)N2CCSC2c2ccc(C)cc2)cc1 (stereo not given)	-26.5%	-3.1%	u	-28.6%	u	-4.6%	u	28.5%
CCn1c2ccccc2c2cc(NC(=O)C(=O)NCC3CCCO3)ccc21 (stereo not given)	8.9%	3.9%	x	-3.8%	-2.2%	x	-4.6%	-12.7%
CC1CCCN(C(=O)COC(=O)CNC(=O)c2ccc(Br)cc2)C1 (stereo not given)	22.0%	x	x	-20.5%	x	x	-0.9%	-4.5%
O=C(Cc1c[nH]c2ccccc12)N/N=C/c1ccc(F)cc1	0.1%	1.4%	1.0%	u	-1.6%	-2.1%	-2.6%	-10.6%
O=C(c1cc(-c2ccccc2Cl)nc2ccccc12)N1CCOCC1	-8.1%	-4.5%	x	4.1%	16.9%	x	-16.0%	4.1%
COc1ccccc1NC(=O)NCCC1=CCCCC1	u	-2.7%	x	-13.9%	-8.6%	x	0.0%	-7.8%
CCOC(=O)C1(Cc2ccccc2C(F)(F)F)CCN(C2CCN(C(C)=O)CC2)CC1	u	0.5%	x	1.8%	-1.5%	x	-12.1%	5.9%
Cn1cc(CN2CCC(C(=O)Nc3ccc(Oc4ccccc4F)cc3)CC2)cn1	x	5.7%	x	x	4.9%	x	u	-4.1%
O=C(C1CCN(c2nnc(-n3cccc3)s2)CC1)N1CCCCC1	x	-3.2%	x	x	4.8%	x	-4.4%	-5.8%
COCCNC(=O)c1ccc2nc(Cc3ccc(OC)c(OC)c3)oc2c1	x	-6.1%	x	x	3.9%	x	50.1%[activator]	-19.0%
CNC(=O)COC(=O)c1ccc(Cl)c(S(N)(=O)=O)c1	x	-0.3%	x	x	-2.6%	x	22.2%	1.2%
CCCN1C(=O)/C(=C2\SC(N3CCCCC3)=NC2=O)c2ccccc21	u	-31.5%	u	u	-103.0%	-8.6%	17.7%	25.3%
O=C(COc1ccccc1)N1CCN(c2ccccc2)CC1	u	-3.7%	5.5%	8.9%	3.0%	-2.5%	-10.4%	2.1%
COc1ccc(C(=O)N2CCC(C(=O)O)CC2)c2ccccc12	-1.2%[46.1 µM]	2.3%	x	16.8%	10.2%	x	1.3%	11.5%
Cc1ccc(NC2=C/C(=N\S(=O)(=O)c3cccs3)c3ccccc3C2=O)c(C)c1	u	-72.3%	u	u	2.8%	-2.8%	25.1µM*	-15.2%
O=C(NCCc1ccccc1)c1cc(S(=O)(=O)N2CCCC2)ccc1F	x	-2.1%	x	x	-1.2%	x	22.5%	15.2%
Cc1sc2nc(Cc3ccccc3)[nH]c(=O)c2c1-c1ccccc1	9.8%	-3.5%	5.5%	u	-9.3%	-1.2%	-4.7%	-23.5%
CC(=O)Nc1ccc(S(=O)(=O)NCC(=O)NNC(=O)COc2c(C)cccc2C)cc1	6.5%	-1.7%	x	-1.4%	x	x	-8.6%	14.4%
O=C(NCc1ccccc1)C1CCN(S(=O)(=O)c2ccc3[nH]c(=O)ccc3c2)CC1	x	x	0.3%	0.2%[46.1 µM]	x	0.5%	0.3%	x
Nc1sc(-c2ccccc2)cc1-c1n[nH]c(=S)n1C1CCCCC1	u	-1.9%	x	u	u	x	-14.3%	-1.3%
Cc1ccccc1N1CCN(Cc2cc3c(cc2[N+](=O)[O-])OCO3)CC1	x	-0.9%	x	x	-11.1%	x	-6.9%	-13.2%
COCc1nnc(NC(=O)CCCOc2ccccc2OC)s1	0.8%[46.1 µM]	u	-6.7%	-1.7%	1.2%	0.3%	0.2%	15.3%
COc1ccc(C(=O)NCC(=O)N/N=C/c2ccco2)cc1OC	-21.3%[46.1 µM]	0.8%	x	3.7%[46.1 µM]	14.1%	x	-2.1%	9.6%
CCN(C(=O)Cn1ncc2c(=O)oc3ccccc3c21)c1ccccc1F	u	x	-12.8%	-1.5%[46.1 µM]	x	6.2%	-9.0%	x
COc1ccc(C(=O)SC2=NCCS2)cc1OC	5.8%	0.1%	-6.7%	18.6%	-8.1%	0.2%	u	5.9%[3.69 µM]

Full records, quoted from the list:
Shown for O=C(c1cc(-c2ccccc2Cl)nc2ccccc12)N1CCOCC1 → MARV entry inh = -8.1%; SARS PLP yeast = -4.5%; Cruzain noTriton = x; LASV entry inh = 4.1%; NS1 inh = 16.9%; Cruzain inh Det = x; StopGo reporter = -16.0%; RE007 growth inh = 4.1%
Shown for Cc1ccc(NC2=C/C(=N\S(=O)(=O)c3cccs3)c3ccccc3C2=O)c(C)c1 → MARV entry inh = u; SARS PLP yeast = -72.3%; Cruzain noTriton = u; LASV entry inh = u; NS1 inh = 2.8%; Cruzain inh Det = -2.8%; StopGo reporter = 25.1µM*; RE007 growth inh = -15.2%
